Assay outcomes deposited in PubChem BioAssay by ICCB-Longwood Screening Facility, Harvard Medical School.
Sa helicase inh: inhibitors of S. aureus replicative helicase, primary screen, biochemical, fluorescence unwinding readout. 120,000 tested, 0.05% active. replicative DNA helicase (DnaC/DnaB), Staphylococcus aureus. purified S. aureus helicase, fluorescence unwinding assay; about half of the hits fall short of the stated cut. inhibition, %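 (tested at about 80 µM)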;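 active = both duplicates at 50% or more, or one of them with a favoured structure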;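 also: 0% = mean of negative control wells and 100% = mean of positive control wells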
MgrA DNA FP: S. aureus MgrA activity modulators, primary screen, biochemical, S. aureus Newman, fluorescence polarization; MgrA-DNA binding; inhibition, %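 (about 10 µg/mL by stock and volumes)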; 84,000 tested, 0.13% active;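 active = above 50% in either of two replicates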;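 also: 0% = protein plus DNA without compound and 100% = DNA alone without protein; higher means less MgrA bound to DNA so lower polarization; one replicate is shown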
* = called active by the depositor; / = no result given. Some of the compounds tested; the hit share may differ from the screen's.

smiles	Sa helicase inh	MgrA DNA FP
O=C1c2ccccc2C(=O)N1CCCc1nc2ccccc2c(=O)n1Cc1ccccc1	/	-0.7
O=C(O)Cn1c2ccc(Cl)cc2c2nc3ccccc3nc21	-3	/
O=C1N=C2SC=CN2C(=O)/C1=C\c1ccccc1	-6	/
Clc1cc(Cl)cc(Nc2ncnc(-n3cccc3)n2)c1	/	0.8
CC1CC(C)CN(C(=O)CNCc2ccco2)C1 (stereo unspecified)	2	-4.5
COc1cc2c(cc1NC(=O)CN1CC(C)OC(C)C1)oc1ccccc12 (stereo unspecified)	4	/
O=c1c2c3c(sc2nc(SCCn2ccnc2)n1-c1ccccc1)CCCC3	7	/
O=C(COC(=O)C12CC3CC(CC(O)(C3)C1)C2)NCc1ccc2c(c1)OCO2	13	/
CNC1C(O)C2O[C@H](OC3C(N)C[C@@H](N)C(O)[C@H]3O)C(N)C[C@H]2O[C@@H]1O[C@H]1OC(CO)[C@@H](N)[C@H](O)C1O (stereo partly specified)	/	0.8
O=c1[nH]ncc2c3ccccc3n(Cc3ccccc3)c12	1	/
CN1C(=O)/C(=C\c2ccccc2)Sc2ccc(C(=O)NC3CCCCC3)cc21	-17	0.4
O=C(NC(=O)c1ccccc1Cl)OCc1cccc(Oc2ccccc2)c1	/	0.5
N#Cc1cc([N+](=O)[O-])ccc1Sc1ccccc1	/	-0.1
CNC(=O)/C(C#N)=C/N(C)C	12	/
COc1cc(SC)ccc1C(=O)N(C)C1CCN(C)CC1	-23	/
COc1ccc(-c2ncnn2-c2cccc(Cl)c2)cc1OC	15	-0.5
COc1cccc(NC(=O)Nc2c(C)nc3nc[nH]n3c2=O)c1	10	/
Cc1nc(-c2nc(-c3ccc(Cl)s3)cs2)cs1	/	-1.1
CC(C)(C)c1ccc(Oc2ncccc2[N+](=O)[O-])c(Cl)c1	/	2.3
CN1CCN(C(=O)/C=C/c2c(Cl)nc3ccccn23)CC1	24	/
COc1ccc(-c2noc(CC(=O)N3CCN(c4ccccn4)CC3)n2)cc1	11	/
COc1ccc2oc(=O)cc(CN(C)c3c(C)cc(C)cc3C)c2c1	5	1.1
CCN(CC)C(=O)COc1ccc(-c2nnc(Nc3ccc(C(N)=O)cc3)c3ccccc23)cc1	6	/
CCOC(=O)c1c(NC(=O)c2ccc(Br)cc2)sc(C(=O)Nc2cccc(Cl)c2)c1C	/	0.4
O=C(CSc1nc(=O)n(CCCN2CCOCC2)c2c1CCC2)Nc1nccs1	10	/
CCOC(=O)c1oc2cc(O)c(CC)cc2c(=O)c1-c1ccc2c(c1)OCCO2	13	-0.1
C=CCNc1nc(C)c(C#N)cc1C(=O)OCC	/	-1.4
Cc1sc2ncnc(SC(F)F)c2c1C	-8	/
CCOC(=O)c1sc(NC(=O)c2ccco2)nc1-c1ccccc1	16	/
CCOC(=O)N1CCC(NC(=O)c2cc(S(=O)(=O)N3CCC4(CC3)OCCO4)ccc2F)CC1	5	/
CCC(C)NC(=O)Cn1c(=O)n(CC(=O)NCCc2ccccc2)c(=O)c2sccc21 (stereo unspecified)	-16	/
CCOC(=O)c1nnn(-c2cccc(C)c2C)c1C(=O)OCC	27	/
Cc1cc2nc3s/c(=C4\C(=O)N(CC(=O)O)c5ccccc54)c(=O)n3c2cc1C	16	0.9
NC1=C(c2ccccc2)C(=O)NC1=O	/	-1.9
CC(C)Cc1ccc(S(=O)(=O)n2cccn2)cc1	20	5.2
O=C(Nc1ccon1)c1sc2cc(F)ccc2c1Cl	-2	/
O=C(CC1CC2CCC1C2)NCc1ccccc1C(F)(F)F (stereo unspecified)	4	-0.3
O=C(CSCCCc1nc(-c2ccccc2)no1)Nc1ccc(F)c(F)c1	-14	/
O=C(Cc1c[nH]c2ccccc12)NC1(C(=O)NC2CCCC2)CCCCC1	-10	/
COC(=O)c1c(C)oc(C)c1S(=O)(=O)Nc1c(-c2ccccc2)c(C(F)(F)F)nn1C	24	/
CC(=O)N1c2ccc(C)cc2C2=NNC(=S)NC21O (stereo unspecified)	-18	/
CCC(CC)N1CCN(S(=O)(=O)c2ccc(NC(C)=O)cc2)CC1	5	-0.4
CCC1C(=O)N=C(SCC(=O)NCc2ccccc2)NC1=O (stereo unspecified)	0	/
CC(=O)OCC(=O)[C@@]1(O)CC[C@H]2[C@@H]3CCC4=CC(=O)CC[C@]4(C)[C@@]3(F)[C@@H](O)C[C@@]21C	/	0.3
CCOC(=O)c1oc2ccccc2c1COC(=O)Cn1cnnn1	-10	/
CCc1ccccc1NC(=O)C1CC(c2ccccc2OC)=NO1 (stereo unspecified)	-15	/
O=S(=O)(Nc1ccccc1)c1ccccc1	11	-0.5
CN1/C(=C\C(=O)COC(=O)C(C)(C)C)C(C)(C)c2ccccc21	9	0.3
CCOC(=O)c1c(N2C(=O)C=CC2=O)sc(C)c1-c1ccccc1	/	5.1
CN(C)S(=O)(=O)c1ccc2nnn(OCC(=O)NCc3ccco3)c2c1	-3	/
CSc1cccc(NC(=O)CC2(CC(=O)O)CCCC2)c1	/	-3.4
N#Cc1c(N)nc(SCC(N)=O)c(C#N)c1-c1ccc(Cl)cc1	13	/
OCCSc1nc2ccccc2s1	/	1.1
Nc1cccc(OCC(=O)N2CCOCC2)c1	10	-0.1
Cc1noc(C)c1S(=O)(=O)Nc1ccccc1	/	-0.9
S=C(c1ccc(-c2ccc(Cl)cc2)o1)N1CCN(c2ccccc2)CC1	20	16

New compounds follow
smiles	Sa helicase inh	MgrA DNA FP
O=C1CC(=O)N(Cc2ccco2)C(=O)N1	-9	8.9
O=c1oc(-c2ccc(F)c(Cl)c2)nc2cccc(F)c12	/	-2.4
CCOc1ccc(C2NC(=O)NC(C)=C2C(=O)OCCc2ccccc2)cc1OC (stereo unspecified)	/	0.0
Cn1nc(C(=O)NN2CC(=O)NC2=O)c2ccccc2c1=O	9	/
COC(=O)C1=C(CN2CCc3ccccc32)NC(=O)NC1c1cccc(OC)c1 (stereo unspecified)	-8	-0.7
COc1ccc(Cc2nnc(SCCN3C(=O)c4ccccc4C3=O)n2N)cc1	-11	/
COc1ccc(C2NCCc3cc(OC)c(OC)cc32)cc1 (stereo unspecified)	9	-0.2
Cc1ccccc1NC(=S)NNC(=O)CCc1ccc(O)cc1	/	-0.7
O=C(O)c1ccc2c(c1)NC(=O)C(CSCc1ccccc1Cl)N2 (stereo unspecified)	-67	/
CCCc1nc2sc3c(c2c(=O)[nH]1)CCCC3	9	-1.4
COC(=O)Cn1c(O)c(N=NC(=O)Cn2nnc3ccccc32)c2ccccc21	-18	/
COC(=O)/C=C1/OC(c2ccc(Cl)cc2)=CC1=O	-8	25
CCC(C)NC(=O)c1cc(-c2ccc(OC)c(OC)c2)no1 (stereo unspecified)	21	/
Cc1cc(NC(=O)C2CCN(C(=O)OCc3ccccc3)CC2)n(C)n1	/	0.6
O=C(OCc1ccccc1)/C(=C/c1cccs1)c1cccs1	-2	/
CC(=O)Nc1ccc(Oc2cnc3ccccc3n2)cc1	/	-0.1

Reprinted at random: 5 entries already listed.
smiles	Sa helicase inh	MgrA DNA FP
Cc1cc(NC(=O)C2CCN(C(=O)OCc3ccccc3)CC2)n(C)n1	/	0.6
CC(=O)Nc1ccc(Oc2cnc3ccccc3n2)cc1	/	-0.1
O=C(O)c1ccc2c(c1)NC(=O)C(CSCc1ccccc1Cl)N2 (stereo unspecified)	-67	/
CCCc1nc2sc3c(c2c(=O)[nH]1)CCCC3	9	-1.4
COC(=O)Cn1c(O)c(N=NC(=O)Cn2nnc3ccccc32)c2ccccc21	-18	/

Following part:
smiles	Sa helicase inh	MgrA DNA FP
CCOC(=O)C1CCCN(C(=O)CSc2ccc(Br)cc2)C1 (stereo unspecified)	6	/
CCOC(=O)c1cnn(-c2ccccc2)c1NC(=O)C(C)(C)C	5	-2.5
Cc1ccc2oc(=O)c3cnn(CC(=O)NCC4(c5ccccc5)CCCC4)c3c2c1	-13	0.6
COc1ccc(Oc2c(Cl)coc2O)cc1	/	-2.0
O=S(=O)(/C=C/c1ccccc1)Nc1ccccc1	12	4.7
O=C1/C(=C/c2ccccc2)SC(=S)N1C1CCS(=O)(=O)C1 (stereo unspecified)	5	-1.6
COc1ccc(N2C(=O)c3ccccc3S2(=O)=O)cc1	14	-0.1
CCN1CCN(C(=O)c2cn(C)nc2-c2ccc3c(c2)OCCCO3)CC1	-4	/
COc1ccc2c(c1)C(=O)N(c1ccccc1C)C(=O)C2(C)C	8	/
CC(=O)Nc1cccc(C(=O)N2CCN(c3ccccc3)CC2)c1	-16	0.3
COc1ccc(OC)c(S(=O)(=O)NC(C)c2ccccc2)c1 (stereo unspecified)	12	/
Cc1csc(=O)n1CC(=O)OCc1nc2ccccc2s1	-16	/
CC(C)S(=O)(=O)c1cscc1NC(=O)c1ccccc1Cl	/	-1.6
NS(=O)(=O)c1ccc(CNS(=O)(=O)c2cccc3nonc23)cc1	5	/
CCOC(=O)c1c(C)[nH]c(C)c1C(=O)CSc1ncccn1	8	/
COC(=O)c1sc(=S)n(-c2ccc(Cl)cc2)c1C	11	0.8
CC1CCCCC1NC(=O)Cn1nc(C(=O)O)c2ccccc2c1=O (stereo unspecified)	-1	/
Cc1cc(C)n(-c2nc3cc(Cl)c(Cl)cc3n3c(C)nnc23)n1	11	-2.7
COc1ccccc1OCCOc1ccccc1OC	/	-0.6
CC(C)[C@H](NC(=O)c1ccccc1)C(=O)N1CCN(c2ccccc2)CC1	8	/
O=C(CCc1ccc(O)cc1)NNC(=S)Nc1cc(C(F)(F)F)cc(C(F)(F)F)c1	/	3.5
O=C(CCCn1c(=O)oc2ccccc21)Nc1cccnc1	-4	/
Cn1c(-c2ccc(F)cc2)nc2ccccc21	-18	-1.4
Cc1ccc(/C=C2/C(=O)NC(=O)N(C3CCCCC3)C2=O)cc1	23	9.8
[O-][n+]1onc2c1CCc1nnccc1-2	/	-3.1
O=C(O)C1CSC(c2ccc(Cl)cc2)N1 (stereo unspecified)	/	0.9
Cc1ccccc1OCC(=O)Nc1cccc(-c2nnc(-c3ccco3)o2)c1	2	-0.7
Cc1ccc(NC(=O)C2CCCN(S(=O)(=O)N3CCOCC3)C2)cc1Cl (stereo unspecified)	-18	/
CC1CCN(C(=O)CN2c3cccc4cccc(c34)S2(=O)=O)CC1	-17	/
O=C(c1cnn(-c2ccccc2)n1)N1CCCSc2ccccc21	-13	/
COC(=O)c1ccccc1NC(=O)CSc1ccccn1	-3	/
N#Cc1cnn(-c2ccc(Cl)cc2Cl)c1N	/	2.8
CN(Cc1ccccc1)C(=O)COC(=O)c1cc(=O)c2ccccc2o1	-4	/
CCSc1nnc(NC(=O)C2CC=CCC2C(=O)O)s1 (stereo unspecified)	4	-1.1
CCOC(=O)C1CCN(C(=O)COC(=O)c2c(C)c(CC)nc3ccccc23)CC1	-6	/
CCn1c(CNC(=O)c2ccc3c(c2)OCO3)nnc1SCC(=O)NC1CCCCC1	5	-4.0
NC(=O)Cn1c(S(=O)(=O)Cc2ccccc2)nc2ccccc21	3	/
Cc1cccc(Nc2cc(N3CCOCC3)ncn2)c1	-12	/
COc1cc(S(=O)(=O)Nc2cc3oc4ccccc4c3cc2OC)ccc1NC(C)=O	19	/
O=c1cc(C(F)(F)F)nc2cc(-c3ccccc3)[nH]n12	15	0.2
CC1(C)Cc2nc(NCCO)c(C#N)cc2CO1	-3	/
NNC(=O)CS(=O)(=O)c1ccc(Cl)cc1	/	-2.1
CC(C)(C)NC(=O)N1CCC(C(=O)c2ccccc2)CC1	-16	/
CN(C)S(=O)(=O)c1cccc(C(=O)NC2CCCCCC2)c1	-11	/
COc1cccc(/C=C/C(=O)Nc2ccc3nc4n(c(=O)c3c2)CCCC4)c1OC	39	/
O=C(O)c1ccc2c(c1)NC(=O)C(CSCc1cccc(F)c1)N2 (stereo unspecified)	-3	/
Cn1nnc2cc(NC(=O)NC3CCCCC3)ccc21	14	-3.8
CC1CCCC(NC(=O)CCCn2c(=O)c3cccn3c3cccnc32)C1C (stereo unspecified)	-7	/
CC(C)C(=O)/C(C#N)=N/Nc1ccc(F)cc1	-13	/
Cc1cccc2nc(CSc3nncn3-c3ccccc3F)cc(=O)n12	10	/
O=C(O)C(Cc1ccccc1)c1ccccc1 (stereo unspecified)	/	-4.9
C=CCn1cnc2sc3c(c2c1=O)CCC(C)C3 (stereo unspecified)	/	-1.0
COc1ccc(C(=O)NC(=S)Nc2ccc3[nH]c(=O)[nH]c3c2)cc1Br	2	0.8
Cc1cc(=O)[nH]c(SCC(=O)c2ccc(F)cc2)n1	/	-0.3
COc1cc2c(cc1OC)CN(C(=O)C1CCCN1S(=O)(=O)c1ccc(C)cc1)CC2 (stereo unspecified)	-15	/
Cc1ccc(Sc2ccc(NC(=O)Nc3ccc(SC(F)(F)F)cc3)cn2)cc1	/	1.1

Further structures.
smiles	Sa helicase inh	MgrA DNA FP
CC(C)CC(OC(=O)c1cccs1)C(=O)NCc1cccs1 (stereo unspecified)	11	-0.8
COC(=O)CSc1nc(C)cc(C)n1	14	/
C=CCc1cccc(CNc2ccc(C(=O)OCC)cc2)c1O	7	0.6
O=C(/C=C/c1ccc(Br)o1)/C=C/c1ccc(Br)o1	2	/
CC1CCCN(C(=O)CCS(=O)(=O)Cc2ccccc2)C1 (stereo unspecified)	16	-3.8
